A1 apoptosis 2 – compounds inhibiting A1, read as caspase activation | MEF A1-2A-BIM cells, caspase-Glo luminescence, 3 h; percent of clofoctol response, DMSO zero | caspase activation, % (test concentration not listed) | 24,000 tested, under 10 active; in the data active = caspase activation above about 5.9%;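 also: wells of about 30 µL received 50 nL stock; the first replicate is given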
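Material: A1-2A-BIM-expressing MEF cells. Buffer or medium: RPMI-1640 plus 10% FBS. Incubation: cells settled overnight, compound exposure 3 h at 37 °C, 5% CO2. Signal: Caspase-Glo 3/7 luminescence, 1 h at room temperature.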
* = called active by the depositor.

SMILES	A1 apoptosis 2
COc1ccc(CN(C)C[C@@H]2Oc3ccc(NC(=O)Cn4cnnn4)cc3CC(=O)N([C@@H](C)CO)C[C@H]2C)cc1	-0.4
C[C@H](CO)N1C[C@H](C)[C@@H](CN(C)C)Oc2c(NS(=O)(=O)c3ccccc3)cccc2C1=O	-0.5
C[C@@H]1CN([C@@H](C)CO)C(=O)Cc2cc(NC(=O)Nc3ccc4c(c3)OCO4)ccc2O[C@H]1CN(C)Cc1ccc2c(c1)OCO2	1.0
C[C@H]1CCCCO[C@@H](CN(C)C(=O)Nc2ccc(C(F)(F)F)cc2)[C@@H](C)CN([C@@H](C)CO)C(=O)c2cc(NC(=O)NC3CCCCC3)ccc2O1	-0.7
C[C@H](CO)N1C[C@H](C)[C@@H](CN(C)CC2CC2)Oc2ccc(NC(=O)Nc3ccc(C(F)(F)F)cc3)cc2CC1=O	0.8
CC(C)NC(=O)N(C)C[C@@H]1OCCCC[C@H](C)Oc2ccc(NS(=O)(=O)c3cccs3)cc2C(=O)N([C@@H](C)CO)C[C@@H]1C	0.3
CC(=O)n1cc([C@H]2C=C(C(=O)N3CCCCCCC3)O[C@@H](OCCCCO)C2)c2ccccc21	-0.1
C[C@@H]1CN([C@H](C)CO)C(=O)c2cccc(NC(=O)c3ccncc3)c2O[C@H]1CN(C)C(=O)Nc1ccc2c(c1)OCO2	-2.0
COc1ccc(CN(C)C[C@@H]2OCCCC[C@H](C)Oc3ccc(NS(=O)(=O)c4ccc(C)cc4)cc3C(=O)N([C@H](C)CO)C[C@H]2C)cc1	0.6
C[C@H](CO)N1C[C@H](C)[C@@H](CN(C)Cc2ccc(-c3ccccc3)cc2)OCc2cn(nn2)CCCC1=O	0.5
Cc1ccc(S(=O)(=O)N(C)C[C@H]2OCCCC[C@H](C)Oc3ccc(NS(C)(=O)=O)cc3C(=O)N([C@H](C)CO)C[C@@H]2C)cc1	0.4
C[C@H]1CN([C@@H](C)CO)C(=O)c2cc(NC(=O)CCN3CCOCC3)ccc2O[C@@H]1CN(C)C	0.2

Filtered by structure, the entries above with nitrogen in an aromatic ring (four)
SMILES	A1 apoptosis 2
COc1ccc(CN(C)C[C@@H]2Oc3ccc(NC(=O)Cn4cnnn4)cc3CC(=O)N([C@@H](C)CO)C[C@H]2C)cc1	-0.4
CC(=O)n1cc([C@H]2C=C(C(=O)N3CCCCCCC3)O[C@@H](OCCCCO)C2)c2ccccc21	-0.1
C[C@@H]1CN([C@H](C)CO)C(=O)c2cccc(NC(=O)c3ccncc3)c2O[C@H]1CN(C)C(=O)Nc1ccc2c(c1)OCO2	-2.0
C[C@H](CO)N1C[C@H](C)[C@@H](CN(C)Cc2ccc(-c3ccccc3)cc2)OCc2cn(nn2)CCCC1=O	0.5

Later entries.
SMILES	A1 apoptosis 2
C[C@H]1CN([C@@H](C)CO)C(=O)Cc2cc(NC(=O)C3CC3)ccc2O[C@@H]1CN(C)Cc1ccncc1	-0.8
C[C@@H]1CN([C@H](C)CO)C(=O)Cc2cc(NC(=O)Nc3cccc4ccccc34)ccc2O[C@@H]1CN(C)CC1CC1	1.0
C[C@@H]1CCCCO[C@H](CN(C)C(=O)c2ccncc2)[C@@H](C)CN([C@@H](C)CO)C(=O)c2cc(NC(=O)Cc3ccccc3)ccc2O1	0.8
COc1ccc(CN(C)C[C@@H]2Oc3c(NC(=O)Nc4ccc(OC)cc4)cccc3C(=O)N([C@@H](C)CO)C[C@@H]2C)cc1	0.8
C[C@@H]1CN([C@@H](C)CO)C(=O)Cc2cc(NC(=O)NC3CCCCC3)ccc2O[C@H]1CN(C)Cc1ccc(C(=O)O)cc1	0.3
C[C@@H]1CN([C@@H](C)CO)C(=O)c2cccc(NC(=O)c3cnccn3)c2O[C@@H]1CN(C)S(=O)(=O)c1cn(C)cn1	0.1
COc1ccc(NC(=O)Nc2ccc3c(c2)C(=O)N([C@@H](C)CO)C[C@H](C)[C@H](CN(C)C(=O)Nc2ccc(C(F)(F)F)cc2)OCCCC[C@H](C)O3)cc1	-0.1
C[C@H](CO)N1C[C@H](C)[C@H](CN(C)C(=O)CCCN(C)C)OCCCC[C@H](C)Oc2ccc(NC(=O)C3CCCCC3)cc2C1=O	0.9
Cc1noc(C)c1NC(=O)Nc1cccc2c1O[C@@H](CN(C)Cc1ccccc1)[C@@H](C)CN([C@@H](C)CO)C2=O	-0.3
C[C@H]1CN([C@@H](C)CO)C(=O)c2cc(NC(=O)Nc3cccc4ccccc34)ccc2O[C@H]1CN(C)C	0.0
C[C@H]1CN([C@@H](C)CO)C(=O)c2cc(NC(=O)C3CC3)ccc2O[C@@H]1CN(C)S(C)(=O)=O	-0.5
COc1ccc(C(=O)Nc2ccc(CN3C(=O)[C@]4(O[C@H](CC(=O)N5Cc6ccccc6C[C@H]5CO)[C@@H]([Si](C)(C)c5ccc(OC)cc5)[C@@H]4C)c4ccccc43)cc2)cc1	-0.8
COc1ccc(S(=O)(=O)N(C)C[C@H]2Oc3c(NC(=O)Nc4cccc5ccccc45)cccc3C(=O)N([C@H](C)CO)C[C@@H]2C)cc1	0.5
C[C@@H]1C=C(C(=O)N2CCN(Cc3ccccc3)CC2)O[C@H](OCc2ccc(CO)cc2)C1	0.1
Cc1noc(C)c1S(=O)(=O)N(C)C[C@@H]1OCCCC[C@H](C)Oc2ccc(NS(=O)(=O)c3cccs3)cc2C(=O)N([C@H](C)CO)C[C@@H]1C	-1.2
C[C@@H]1CN([C@@H](C)CO)C(=O)Cc2cc(NC(=O)Cc3cn(C)c4ccccc34)ccc2O[C@H]1CN(C)C(=O)Nc1ccccc1	-0.1
C[C@@H]1CCCCO[C@@H](CN(C)Cc2ccncc2)[C@H](C)CN([C@@H](C)CO)C(=O)c2cc(NS(C)(=O)=O)ccc2O1	0.2
Cc1cc(C(=O)Nc2cccc3c2O[C@@H](CN(C)Cc2ccc(C(=O)O)cc2)[C@H](C)CN([C@H](C)CO)C3=O)n(C)n1	-0.1
COc1ccc(S(=O)(=O)N(C)C[C@@H]2OCCCC[C@@H](C)Oc3ccc(N(C)C)cc3C(=O)N([C@H](C)CO)C[C@H]2C)cc1	0.3
[N-]=[N+]=NCc1ccccc1C[C@@]1(C(=O)NCc2ccccc2)N=C(c2ccc(OCCCO)cc2)O[C@@H]1c1ccccc1	-0.2
C[C@@H]1CCCCO[C@@H](CN(C)Cc2ccc(C(=O)O)cc2)[C@@H](C)CN([C@H](C)CO)C(=O)c2cc(NC(=O)Nc3cccc4ccccc34)ccc2O1	-0.9
COCCCNC(=O)[C@]1(Cc2ccccc2N=[N+]=[N-])N=C(c2ccc(OCCCO)cc2)O[C@@H]1c1ccccc1	0.3
C[C@@H]1CN([C@H](C)CO)C(=O)c2cc(NC(=O)Cc3ccccc3)ccc2O[C@@H]1CN(C)S(=O)(=O)c1cccs1	-0.4
C[C@@H]1CCCCO[C@@H](CN(C)Cc2ccc(C(=O)O)cc2)[C@@H](C)CN([C@@H](C)CO)C(=O)c2cc(NC(=O)Nc3cccc4ccccc34)ccc2O1	0.3
C=CC1c2cc(O)c(OC)cc2CCN1Cc1cccc(OC(F)(F)F)c1 (stereo not given)	1.1
C[C@H]1CCCCO[C@H](CN(C)S(=O)(=O)c2ccc(Cl)cc2)[C@@H](C)CN([C@@H](C)CO)C(=O)c2cc(NC(=O)Nc3cccc4ccccc34)ccc2O1	0.1
C[C@H](CO)N1C[C@H](C)[C@@H](CN(C)C(=O)Nc2ccc(F)cc2)Oc2c(NC(=O)Nc3ccc(C(F)(F)F)cc3)cccc2C1=O	-0.1
C[C@H](CO)N1C[C@H](C)[C@@H](CN(C)C(=O)Nc2ccccc2)OCCCC[C@H](C)Oc2ccc(NC(=O)CCCN(C)C)cc2C1=O	0.5
COc1ccc(CN(C)C[C@@H]2Oc3ccc(NC(=O)c4ccncc4)cc3CC(=O)N([C@H](C)CO)C[C@H]2C)cc1	0.3
C[C@@H]1CN([C@H](C)CO)C(=O)c2cccc(NC(=O)C3CCCCC3)c2O[C@H]1CN(C)S(C)(=O)=O	-0.1
COc1cc(Br)cc(/C=N/NC(=O)CCCCCC(=O)O)c1O	0.5
C[C@H]1CN([C@@H](C)CO)C(=O)c2cc(NS(=O)(=O)c3cn(C)cn3)ccc2O[C@@H]1CN(C)Cc1ccc(C(=O)Nc2ccccc2N)cc1	0.3
COc1ccc(S(=O)(=O)N(C)C[C@H]2Oc3ccc(NC(=O)Cc4cn(C)c5ccccc45)cc3CC(=O)N([C@H](C)CO)C[C@H]2C)cc1	0.4
C[C@H](CO)N1C[C@H](C)[C@H](CN(C)Cc2ccncc2)Oc2c(NS(C)(=O)=O)cccc2C1=O	0.5
CC(C)NC(=O)Nc1ccc2c(c1)C(=O)N([C@H](C)CO)C[C@@H](C)[C@@H](CN(C)C)O2	1.3
C[C@H](CO)N1C[C@H](C)[C@@H](CN(C)C)Oc2ccc(NC(=O)Nc3ccc4c(c3)OCO4)cc2CC1=O	-1.3

In the list so far, three have a thiophene ring, fused or not:
SMILES	A1 apoptosis 2
CC(C)NC(=O)N(C)C[C@@H]1OCCCC[C@H](C)Oc2ccc(NS(=O)(=O)c3cccs3)cc2C(=O)N([C@@H](C)CO)C[C@@H]1C	0.3
Cc1noc(C)c1S(=O)(=O)N(C)C[C@@H]1OCCCC[C@H](C)Oc2ccc(NS(=O)(=O)c3cccs3)cc2C(=O)N([C@H](C)CO)C[C@@H]1C	-1.2
C[C@@H]1CN([C@H](C)CO)C(=O)c2cc(NC(=O)Cc3ccccc3)ccc2O[C@@H]1CN(C)S(=O)(=O)c1cccs1	-0.4

(more compounds)
SMILES	A1 apoptosis 2
Cc1noc(C)c1NC(=O)Nc1ccc2c(c1)CC(=O)N([C@H](C)CO)C[C@H](C)[C@@H](CN(C)C(=O)Nc1ccccc1)O2	-0.3
Cc1noc(C)c1S(=O)(=O)Nc1ccc2c(c1)C(=O)N([C@H](C)CO)C[C@H](C)[C@@H](CN(C)Cc1ccc3c(c1)OCO3)O2	0.1
C[C@H](CO)N1C[C@H](C)[C@H](CN(C)Cc2ccc(Cl)c(Cl)c2)Oc2ccc(N(C)C)cc2CC1=O	0.9
COc1ccc(S(=O)(=O)N(C)C[C@H]2OCCCC[C@H](C)Oc3ccc(NC(=O)Nc4c(C)noc4C)cc3C(=O)N([C@H](C)CO)C[C@@H]2C)cc1	0.3
C[C@@H]1CN([C@@H](C)CO)C(=O)c2cccc(NC(=O)c3ccc(-c4nccs4)cc3)c2O[C@H]1CN(C)C(=O)Nc1ccc(F)cc1	0.4
C[C@H](CO)N1C[C@H](C)[C@@H](CN(C)Cc2ccncc2)Oc2c(NC(=O)c3cnccn3)cccc2C1=O	0.2
Cc1cc(C(=O)Nc2cccc3c2O[C@H](CN(C)Cc2ccc(Cl)c(Cl)c2)[C@@H](C)CN([C@@H](C)CO)C3=O)n(C)n1	-1.7
C[C@H]1CN([C@@H](C)CO)C(=O)Cc2cc(NC(=O)C3CC3)ccc2O[C@H]1CN(C)Cc1ccc(Oc2ccccc2)cc1	-0.3
C[C@H](CO)N1C[C@H](C)[C@H](CN(C)Cc2ccccc2)Oc2ccc(NC(=O)Nc3ccc(F)cc3)cc2CC1=O	0.0
C[C@H]1CN([C@@H](C)CO)C(=O)c2cc(NS(C)(=O)=O)ccc2O[C@H]1CN(C)Cc1ccc(C(=O)Nc2ccccc2N)cc1	0.5
Cc1noc(C)c1NC(=O)N(C)C[C@H]1OCCCC[C@H](C)Oc2ccc(NS(=O)(=O)c3ccccc3)cc2C(=O)N([C@@H](C)CO)C[C@@H]1C	1.3
Cc1ccc(S(=O)(=O)N(C)C[C@H]2Oc3c(NS(=O)(=O)c4cccs4)cccc3C(=O)N([C@H](C)CO)C[C@H]2C)cc1	0.3
C[C@@H]1CN([C@H](C)CO)C(=O)Cc2cc(NC(=O)NC3CCCCC3)ccc2O[C@H]1CN(C)Cc1ccc(Oc2ccccc2)cc1	0.6
CC(C)=CCC[C@H](C)C/C=N/NC(=O)c1ccc(C(=O)NO)cc1	1.0
C[C@H](CO)N1C[C@H](C)[C@H](CN(C)C(=O)CCC(F)(F)F)OCCCC[C@H](C)Oc2ccc(NC(=O)CCC(F)(F)F)cc2C1=O	-0.6
C[C@H](CO)N1C[C@H](C)[C@H](CN(C)C(=O)NC2CCCCC2)Oc2ccc(NC(=O)Nc3ccc(C(F)(F)F)cc3)cc2C1=O	-0.5
Cc1noc(C)c1NC(=O)N(C)C[C@@H]1OCCCC[C@@H](C)Oc2ccc(NS(=O)(=O)c3ccc(Cl)cc3)cc2C(=O)N([C@@H](C)CO)C[C@H]1C	-0.6
C[C@H]1CN([C@@H](C)CO)C(=O)Cc2cc(NC(=O)CCN3CCOCC3)ccc2O[C@@H]1CN(C)S(C)(=O)=O	-0.3
Cc1noc(C)c1NC(=O)N(C)C[C@@H]1OCCCC[C@@H](C)Oc2ccc(NS(=O)(=O)c3ccc(F)cc3)cc2C(=O)N([C@@H](C)CO)C[C@H]1C	0.3
C[C@@H]1CN([C@H](C)CO)C(=O)c2cc(NC(=O)CCC(F)(F)F)ccc2O[C@@H](C)CCCCO[C@@H]1CN(C)Cc1ccccc1	-0.9
C[C@H](CO)N1C[C@H](C)[C@@H](CN(C)CC2CC2)Oc2ccc(NC(=O)Nc3ccc(F)cc3)cc2CC1=O	0.0
CNC[C@@H]1Oc2ccc(NC(=O)Nc3c(C)noc3C)cc2CC(=O)N([C@@H](C)CO)C[C@@H]1C	-1.2
Cc1cc(C(=O)Nc2cccc3c2O[C@@H](CN(C)C(=O)NC2CCCCC2)[C@@H](C)CN([C@H](C)CO)C3=O)n(C)n1	-0.2
CC(C)NC(=O)Nc1ccc2c(c1)CC(=O)N([C@@H](C)CO)C[C@@H](C)[C@H](CN(C)Cc1ccc(C(F)(F)F)cc1)O2	0.5

These rows are one share of the data; rates above refer to the full screens.
